From PubChem
VDR inh: vitamin D3 receptor (human) inhibition. AID 504847. Potency, µM, without a hit: max response, negative = inhibition, actives largely listed as inhibitors. 400,000 compounds, 0.93% hits. VDR-SRC2-3 peptide fluorescence polarization, 2 h; active = well fitted inhibition curve with a large enough effect; note: series mostly up to about 120 µM
Target sequence (P11473 whole entry, looked up): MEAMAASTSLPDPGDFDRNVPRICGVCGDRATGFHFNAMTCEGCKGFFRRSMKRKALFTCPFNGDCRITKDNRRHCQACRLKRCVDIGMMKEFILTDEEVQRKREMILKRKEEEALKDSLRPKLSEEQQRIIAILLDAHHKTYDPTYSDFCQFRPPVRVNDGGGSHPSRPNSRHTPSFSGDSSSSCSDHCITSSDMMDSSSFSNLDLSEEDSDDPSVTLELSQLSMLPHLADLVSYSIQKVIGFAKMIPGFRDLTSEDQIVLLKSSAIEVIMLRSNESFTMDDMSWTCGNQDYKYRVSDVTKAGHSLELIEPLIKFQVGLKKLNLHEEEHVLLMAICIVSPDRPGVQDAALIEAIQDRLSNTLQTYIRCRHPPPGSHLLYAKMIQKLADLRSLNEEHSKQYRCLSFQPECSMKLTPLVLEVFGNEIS
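Fluorescence polarization assay measuring small-molecule disruption of VDR binding to the coregulator peptide SRC2-3. Compounds were pin-transferred (23 nl) into the reagent mix and incubated 2 h at room temperature before reading.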
Starred values were filed as active, the others as inactive; & = joins results of further samples. % is set by controls: 0 for no effect and ±100 for the full control effect; potency is the fitted concentration of half-maximal effect. An excerpt; the hit share may differ from the screen's.

Preview:
What do the screens show for `O=C(CSc1nc2ccccc2c(=O)[nH]1)NCc1ccc(Cl)cc1`?
VDR inh: 6%

Results for COc1ccc(CN(C(=O)c2nsc(Cl)c2Cl)C(C(=O)NC2CCCC2)c2ccc(OC)cc2)cc1 (stereo not drawn) ?
VDR inh: 5%

All compounds of this part (from the top)
What do the screens show for `O=C(CSc1nc2ccccc2c(=O)[nH]1)NCc1ccc(Cl)cc1`?
VDR inh: 6%

Results for COc1ccc(CN(C(=O)c2nsc(Cl)c2Cl)C(C(=O)NC2CCCC2)c2ccc(OC)cc2)cc1 (stereo not drawn) ?
VDR inh: 5%

How did CCOCCCNC(=O)CCn1ccc2cc(S(=O)(=O)N3CCCC3)ccc21 do in these assays?
VDR inh: -8%

Results for O=C(CSc1nccn1Cc1ccc(Cl)cc1)Nc1ccc2c(c1)OCCO2 ?
VDR inh: -2%

Results for Cc1ccc(N(CC(=O)NCc2ccc(Cl)cc2)S(C)(=O)=O)cc1 ?
VDR inh: 10%

How did Cc1ccc(CNc2nc(C)cs2)cc1 do in these assays?
VDR inh: -17%

What do the screens show for `CC(C)(C)NC(=O)C(=O)NNC(=O)COc1ccccc1`?
VDR inh: -5%

Results for Cc1cc(=O)n2c(C(=O)Nc3ccc(Br)cc3)c(C(=O)Nc3ccccc3)sc2n1 ?
VDR inh: 4%

How did O=C(COC(=O)c1cc([N+](=O)[O-])ccc1N1CCOCC1)Nc1ccc(Cl)cc1 do in these assays?
VDR inh: -2%

Results for CCCCOc1ccc(CNC(=O)c2ccc3c(c2)N(C)C(=O)C2CCCCN32)cc1 (stereo not drawn) ?
VDR inh: 14%

Results for CCn1c(SCc2ccc(F)cc2)nnc1C1CCN(S(=O)(=O)c2ccc(OC)cc2)CC1 ?
VDR inh: -4%

What do the screens show for `CC(C)(C)c1cc(N)n(-c2ccc(C(=O)O)cc2)n1`?
VDR inh: -10%

How did CCc1ccccc1NC(=O)CN1CCN(C(=O)C(C)NC(=O)c2ccc(Cl)cc2)CC1 (stereo not drawn) do in these assays?
VDR inh: -16%

What do the screens show for `COc1cccc(-c2cc(C(=O)Nc3cccc(O)c3)no2)c1`?
VDR inh: -12%

How did O=C(CN1C(=O)c2ccccc2C1=O)N1CCN(C(=O)c2ccco2)CC1 do in these assays?
VDR inh: 4%

Structures listed so far containing a Cl atom (6):
What do the screens show for `O=C(CSc1nc2ccccc2c(=O)[nH]1)NCc1ccc(Cl)cc1`?
VDR inh: 6%

Results for COc1ccc(CN(C(=O)c2nsc(Cl)c2Cl)C(C(=O)NC2CCCC2)c2ccc(OC)cc2)cc1 (stereo not drawn) ?
VDR inh: 5%

Results for O=C(CSc1nccn1Cc1ccc(Cl)cc1)Nc1ccc2c(c1)OCCO2 ?
VDR inh: -2%

Results for Cc1ccc(N(CC(=O)NCc2ccc(Cl)cc2)S(C)(=O)=O)cc1 ?
VDR inh: 10%

How did O=C(COC(=O)c1cc([N+](=O)[O-])ccc1N1CCOCC1)Nc1ccc(Cl)cc1 do in these assays?
VDR inh: -2%

How did CCc1ccccc1NC(=O)CN1CCN(C(=O)C(C)NC(=O)c2ccc(Cl)cc2)CC1 (stereo not drawn) do in these assays?
VDR inh: -16%

Later entries.
How did O=C(C1CCN(S(=O)(=O)c2cccnc2)CC1)N1CCN(C2CCCC2)CC1 do in these assays?
VDR inh: 3%

What do the screens show for `CC(=O)c1cccc(NC(=O)c2ccc3c(Cl)c4c(nc3c2)CCCC4)c1`?
VDR inh: -6%

How did COc1ccc(C2=NOC(C(=O)NCC(C)C)C2)cc1 (stereo not drawn) do in these assays?
VDR inh: -10%

Results for CC1CCN(Cc2c(C(=O)N/N=C/c3cc(Br)ccc3O)nnn2-c2nonc2N)CC1 ?
VDR inh: -4%

Results for Cc1cc(S(=O)(=O)NCCCN2CCOCC2)ccc1F ?
VDR inh: -4%

How did Cc1nc2ccccn2c1C(=O)NN do in these assays?
VDR inh: -4%

Results for CC(=O)c1sc(Nc2cccc(C)c2)nc1C ?
VDR inh: -7%

How did CCN(CC)C(=O)c1oc2ccc(S(=O)(=O)N3CCCCCC3)cc2c1C do in these assays?
VDR inh: -2%

How did CCNc1nc(NC(C)CC)nc(Oc2ccc(OCC)nn2)n1 (stereo not drawn) do in these assays?
VDR inh: -11%&-3%

How did Cc1cc(Cl)cc(Cl)c1OCCOc1cccc2cccnc12 do in these assays?
VDR inh: 2%

How did O=C(CSc1nnc(Nc2ccccc2F)s1)c1cc2ccccc2o1 do in these assays?
VDR inh: -8%

Results for COc1cccc(-n2c(SCC(=O)O)nnc2-c2cccnc2)c1 ?
VDR inh: 2%

Results for CC(C)CN(C(=O)c1nn(C)c(=O)c2ccccc12)c1nc2ccccc2s1 ?
VDR inh: 1%

What do the screens show for `CC1=CC(=O)C(C(C)=Nc2ccccc2Cl)C(=O)O1` (stereo not drawn)?
VDR inh: -3%

How did CS(=O)(=O)N1CCC2(CC1)CN(c1cccc(-c3ccccc3)c1)C2 do in these assays?
VDR inh: -26%

How did COc1cccc(CNc2cccc(C(F)(F)F)c2)c1O do in these assays?
VDR inh: 6%

Results for O=C(Nc1cccc(O)c1)c1cc2nc(-c3ccccc3)cc(-c3ccccc3)n2n1 ?
VDR inh: -22%

What do the screens show for `COCCNC(=S)NC12CC3CC(CC(C3)C1)C2`?
VDR inh: 22%

What do the screens show for `Cc1ccc(S(=O)(=O)C2(C(=O)Nc3ccc4c(c3)OCO4)CC2)cc1`?
VDR inh: -4%

Results for O=C(Oc1ccc(/C=N/O)cc1)c1ccccc1 ?
VDR inh: 11%

Results for O=C(NC1CCCCC1)C(c1cccnc1)N(C(=O)CCl)c1ccc(F)cc1 (stereo not drawn) ?
VDR inh: -8%

How did COc1cc(OC)cc(C(=O)NNC(=O)CCNC(=O)c2ccc(Br)cc2)c1 do in these assays?
VDR inh: 23%

What do the screens show for `CN(C)CCCNC(=S)N(Cc1cccs1)Cc1cc2cc3c(cc2[nH]c1=O)OCCO3`?
VDR inh: 3%

How did CC(C)N(Cc1nc(COc2ccccc2)no1)Cc1nccn1C do in these assays?
VDR inh: 15%

How did CCn1c(-c2ccco2)n[nH]c1=S do in these assays?
VDR inh: -3%

How did O=C(Nc1nncs1)c1cc(S(=O)(=O)N2CCCCC2)ccc1Cl do in these assays?
VDR inh: -13%

Results for O=C(Nc1ccccc1-c1nc2ccccc2s1)c1ccco1 ?
VDR inh: 19%

How did CCCCOc1ccc(C(=O)Nc2ccc(SC(F)F)cc2)cc1OC do in these assays?
VDR inh: 1%

How did COc1ccc(Cc2nnc(NC(C)=O)s2)cc1 do in these assays?
VDR inh: 9%

How did C=CCn1c(SCC(=O)Nc2c(C)nn(Cc3ccccc3)c2C)nnc1C(O)c1ccccc1 (stereo not drawn) do in these assays?
VDR inh: 13%

5 consecutive records from above:
How did O=C(Nc1nncs1)c1cc(S(=O)(=O)N2CCCCC2)ccc1Cl do in these assays?
VDR inh: -13%

Results for O=C(Nc1ccccc1-c1nc2ccccc2s1)c1ccco1 ?
VDR inh: 19%

How did CCCCOc1ccc(C(=O)Nc2ccc(SC(F)F)cc2)cc1OC do in these assays?
VDR inh: 1%

How did COc1ccc(Cc2nnc(NC(C)=O)s2)cc1 do in these assays?
VDR inh: 9%

How did C=CCn1c(SCC(=O)Nc2c(C)nn(Cc3ccccc3)c2C)nnc1C(O)c1ccccc1 (stereo not drawn) do in these assays?
VDR inh: 13%

(more compounds)
How did CC1(C)Cc2c(sc(NC(=O)C(=O)N3CCOCC3)c2C(N)=O)CO1 do in these assays?
VDR inh: -1%

Results for COc1ccc(Br)cc1[C@@H]1Nc2ccc(C(=O)O)cc2[C@@H]2C=CC[C@@H]21 ?
VDR inh: -3%

What do the screens show for `O=C(NCCn1cccn1)c1ccc(OC2CCN(CCc3ccccc3)CC2)cc1`?
VDR inh: 28%

What do the screens show for `Cc1ccc2c(c1)c1c(n2C)C(=O)CCC1`?
VDR inh: -23%

What do the screens show for `CC(C)c1ccccc1NC(=O)CSc1n[nH]c(=O)n1C1CC1`?
VDR inh: -17%

How did CC(C)(C)C#CCn1c(/C=[N+](\[O-])C2CCCCC2)nc2ccccc21 do in these assays?
VDR inh: -8%

What do the screens show for `CC[C@H](C)[C@H](NC(=O)[C@H](CC(=O)O)NC(=O)[C@H](CC(C)C)NC(=O)[C@H](NC(C)=O)C(c1ccccc1)c1ccccc1)C(=O)N[C@H](C(=O)N[C@@H](Cc1c[nH]c2ccccc12)C(=O)O)[C@@H](C)CC`?
VDR inh: 3%

How did c1ccc(C(c2ccccc2)c2nc(-c3cccnc3)no2)cc1 do in these assays?
VDR inh: 7%

Results for Cc1ccc(-c2cc(NC(=O)COc3ccc(Cl)cc3C)on2)cc1 ?
VDR inh: 10%

Results for COc1cnc(-c2ccccc2)nc1Oc1ccccc1C ?
VDR inh: 3%

Results for CS(=O)(=O)c1cnc(-c2ccccc2)nc1-c1ccc(Cl)c(Cl)c1 ?
VDR inh: -16%

What do the screens show for `COc1ccc(S(=O)(=O)Nc2cccc3ccc(O)cc23)cc1`?
VDR inh: 5%

Results for C#CCOCCOCCOCCNc1nc(N2CCN(C(=O)[C@H]([C@@H](C)CC)n3cc(CCCN=C(N)N)nn3)CC2)nc(N2CCN(C(=O)[C@H](CCCCN)n3cc(CC(C)O)nn3)CC2)n1 (stereo partly drawn) ?
VDR inh: -11%

Results for Clc1cccc(-c2nc(NCC3CCCO3)c3ccccc3n2)c1 (stereo not drawn) ?
VDR inh: -6%

What do the screens show for `Cn1c(-c2cc3c(C(F)(F)F)nn(C)c3s2)n[nH]c1=S`?
VDR inh: 10%

What do the screens show for `CCCCOC(=O)CCc1n[nH]c(=O)[nH]c1=O`?
VDR inh: 7%

How did Cc1ccc(S(=O)(=O)N2CCN(S(=O)(=O)N3CCOCC3)CC2)c(C)c1 do in these assays?
VDR inh: 5%

How did OC(CSc1ccc(F)cc1)CN1CCN(c2ccccc2)CC1 (stereo not drawn) do in these assays?
VDR inh: 6%

Results for CCOc1ccc(NS(=O)(=O)c2cc(C(=O)N3CCN(c4ccccc4O)CC3)ccc2Cl)cc1 ?
VDR inh: -11%

How did Cc1cc(OCC(=O)N2CCN(c3ccccn3)CC2)c(C)cc1Br do in these assays?
VDR inh: 1%

Results for COc1ccc(S(=O)(=O)N2CCCC2C(=O)NCc2cccs2)cc1 (stereo not drawn) ?
VDR inh: -8%

Results for CCOCCCNCc1ccc(OCc2ccccc2Cl)cc1 ?
VDR inh: -2%

How did O=C(O)CCc1nnc(SCC(=O)Nc2cccc(C(F)(F)F)c2)[nH]c1=O do in these assays?
VDR inh: -10%

What do the screens show for `CCn1c(=O)n(CC)c2cc(N3CCCC3)c(NC(=O)c3ccc(OC)c(Br)c3)cc21`?
VDR inh: 8%

Results for O=C(CCc1ccccc1)OCC(=O)c1cccc([N+](=O)[O-])c1 ?
VDR inh: -1%

How did O=c1nc2ccccc2c2n1C[C@H](CN1CCN(c3ccccc3)CC1)N2 do in these assays?
VDR inh: 3%

What do the screens show for `Fc1cccc(Cc2noc(CN3CCN(c4cnccn4)CC3)n2)c1`?
VDR inh: -22%

What do the screens show for `O=C(CCCn1c(=S)[nH]c2ccc(Br)cc2c1=O)N1CCN(c2ccccn2)CC1`?
VDR inh: 6%

How did Cc1ccccc1N1CCN(S(=O)(=O)c2nnc(NC(=O)c3ccc(F)cc3)s2)CC1 do in these assays?
VDR inh: 2%

What do the screens show for `CCO[C@@H]1OC(C(=O)N2CCOCC2)=C[C@H](c2coc3ccccc3c2=O)[C@H]1CCCO`?
VDR inh: -7%

Results for Cc1cccc(OCC(=O)N(Cc2ccc(N(C)C)cc2)Cc2ccco2)c1C ?
VDR inh: 21%

What do the screens show for `Cc1cccnc1NC(=O)C1CCN(S(=O)(=O)c2cccs2)CC1`?
VDR inh: 12%

Results for COc1ccccc1CNS(=O)(=O)c1c(C)[nH]c(C)c1C(=O)N1CCCC1 ?
VDR inh: -3%

What do the screens show for `CCOC(=O)C(CSCC(=O)c1ccc(Cl)cc1)NC(=O)OC(C)(C)C` (stereo not drawn)?
VDR inh: -18%

Results for CC(C(=O)c1ccc(-c2ccccc2)cc1)[n+]1cccc(NC(=O)c2ccccc2)c1 (stereo not drawn) ?
VDR inh: 10%

Results for N/C(=N\OC(=O)c1ccc(Cl)cc1)c1ccc(Cl)cc1 ?
VDR inh: 5%

What do the screens show for `COc1ccc(CNC(=O)CCc2ccc(S(=O)(=O)N3CCCCCC3)cc2)cc1OC`?
VDR inh: -6%

What do the screens show for `CCOC(=O)c1cc(C)n(S(=O)(=O)c2ccc(C)cc2)c1C`?
VDR inh: 3%

What do the screens show for `O=[N+]([O-])c1ccc(OCCOc2ccccc2/C=N/n2cnnc2)cc1`?
VDR inh: -9%

What do the screens show for `CC(C)Cn1c(SCC(N)=O)nnc1-c1cccc(S(=O)(=O)N2CCOCC2)c1`?
VDR inh: -13%

Results for CCc1nc2ccccc2c2nc3ccccc3n12 ?
VDR inh: -15%

Results for O=C(CNC(=S)N(CCCN1CCOCC1)Cc1cccs1)NC1CCCCC1 ?
VDR inh: 12%

What do the screens show for `Cn1c(CN2CCOCC2)nc2cc(NC(=O)c3ccccc3[N+](=O)[O-])ccc21`?
VDR inh: 10%

Results for O=C(NCc1cccs1)c1cc(-c2ccccn2)nc2ccc(Br)cc12 ?
VDR inh: 1%

Results for COc1ccc(C(=O)Nc2ccc3c(c2)C(=O)c2ccccc2C3=O)cc1OC ?
VDR inh: -4%

Results for OC[C@@H]1CCCN1Cc1cn(-c2ccccc2)nc1-c1ccc2c(c1)OCO2 ?
VDR inh: -8%

Results for CSc1ccc(/C=C/C(=O)OCC(=O)N2CCN(S(=O)(=O)c3ccc(C)cc3C)CC2)cc1 ?
VDR inh: -4%

What do the screens show for `O=C(C1=C[C@H](C2CCCCC2)C[C@H](OCc2ccc(CO)cc2)O1)N1CCN(Cc2ccccc2)CC1`?
VDR inh: -18%

What do the screens show for `Cc1ccc(C(=O)N/C(=C\c2ccco2)C(=O)N2CCSCC2)cc1C`?
VDR inh: 9%
